KCNQ2 block: KCNQ2 potassium channel inhibitors, primary screen, cell-based, CHO-K1, FluxOR thallium flux, B-score (AID 2156). 20 min; active compounds read low; only compounds with negative scores are shown here; some inactives read as strong as hits. Potassium voltage-gated channel subfamily KQT member 2 (Rattus norvegicus), O88943. B-score at 10 µM. 1.1% of 310,000 active;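 active = fluorescence ratio B-score at most minus 3 library SDs, with starting brightness B-score within 2 library SDs, cut at about -5.5 in these data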
Target sequence (O88943 whole entry, looked up): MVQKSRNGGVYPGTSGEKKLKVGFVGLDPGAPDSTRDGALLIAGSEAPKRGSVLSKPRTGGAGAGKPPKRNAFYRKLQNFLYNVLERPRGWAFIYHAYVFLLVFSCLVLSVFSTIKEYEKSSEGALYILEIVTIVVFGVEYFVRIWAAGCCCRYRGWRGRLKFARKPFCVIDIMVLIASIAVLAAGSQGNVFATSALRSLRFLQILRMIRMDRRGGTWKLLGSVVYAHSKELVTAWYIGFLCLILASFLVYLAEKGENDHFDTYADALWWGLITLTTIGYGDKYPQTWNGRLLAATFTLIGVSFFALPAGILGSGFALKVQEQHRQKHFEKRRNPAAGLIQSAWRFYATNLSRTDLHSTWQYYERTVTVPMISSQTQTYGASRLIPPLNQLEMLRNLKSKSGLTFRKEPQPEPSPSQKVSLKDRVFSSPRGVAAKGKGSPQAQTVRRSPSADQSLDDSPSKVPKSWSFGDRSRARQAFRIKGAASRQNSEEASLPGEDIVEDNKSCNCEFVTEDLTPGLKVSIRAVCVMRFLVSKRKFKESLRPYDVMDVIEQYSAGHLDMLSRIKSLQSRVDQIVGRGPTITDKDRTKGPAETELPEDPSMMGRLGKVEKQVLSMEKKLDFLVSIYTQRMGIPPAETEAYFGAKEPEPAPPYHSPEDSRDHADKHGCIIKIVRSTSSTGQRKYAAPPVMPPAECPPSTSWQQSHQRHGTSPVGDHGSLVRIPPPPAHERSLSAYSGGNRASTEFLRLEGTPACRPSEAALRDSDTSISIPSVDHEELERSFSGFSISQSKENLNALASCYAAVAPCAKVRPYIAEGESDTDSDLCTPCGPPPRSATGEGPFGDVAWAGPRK
KCNQ2 block baseline: further read-out of KCNQ2 block, marked with its call; B-score; measured here: initial fluorescence intensity artifact check;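 brightness before thallium and not channel activity; 0 = typical well and far values either way flag optical interference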
Active calls of the source: *; i = inactive.

SMILES	KCNQ2 block	KCNQ2 block baseline
CCOc1ccc2cc(C3CC(c4ccco4)=NN3S(=O)(=O)c3ccccc3)c(Cl)nc2c1 (stereo unspecified)	i	-0.02
COc1cc(C(CC(=O)N2CCCC2)c2c(OC)cc(OC)c3ccc(=O)oc23)cc(OC)c1OC (stereo unspecified)	i	3.7
CN(C)C(=O)c1cc(C(=O)c2ccccc2C(F)(F)F)c[nH]1	i	-0.76
CCCCOc1ccc(CSc2n[nH]c(C)n2)cc1	i	-0.6
CCN(CC(=O)NCc1ccc(Cl)cc1)C(=O)CSc1ccc(F)cc1	i	0.68
CCn1c(SCCOc2ccc(Cl)cc2)nnc1-c1cccs1	i	-0.54
Cc1cc(C)c(OCC(=O)NCC2CCCO2)c(C)c1 (stereo unspecified)	i	-0.84
O=C1CCN(c2ccc([N+](=O)[O-])cc2F)CC1	i	-0.52
Cc1cccc(N2CCN(C(c3cccs3)c3nnnn3C(C)(C)C)CC2)c1C (stereo unspecified)	i	1.9
CC(=O)C1=C(c2ccccc2)OC(N)=C(C#N)C1c1ccc(O)cc1 (stereo unspecified)	i	0.7
CN1CCN(CCNC(=O)Nc2ccccc2[N+](=O)[O-])CC1	i	2
c1ccc2oc(SCc3cn4ccccc4n3)nc2c1	i	-0.17
COc1ccccc1-c1nnc2sc(COc3ccc(Cl)cc3Cl)nn12	i	4.8
CCOC(=O)c1cnn(-c2ccccc2)c1NC(=O)c1ccccc1C	i	-0.64
CCOC(=O)N1CCN(Cc2nc3c(c(=O)n(C)c(=O)n3C)n2CCCc2ccccc2)CC1	i	-0.4
O=C(N/C(=C\c1cccc([N+](=O)[O-])c1)C(=O)N1CCOCC1)c1ccc([N+](=O)[O-])cc1	i	0.35
O=C1CCN(Cc2ccccc2)CCN1[C@H](COc1ccccc1)Cc1ccccc1	i	0.04
CCNc1ccc(C(=O)OCC(=O)NCCN2C(=O)CSC2=O)cc1[N+](=O)[O-]	i	0.4
CCCCn1c(N)c(-c2nc3ccccc3o2)c2c([N+](=O)[O-])nn(C)c(=O)c21	i	0.23
COc1ccc(/C=N/Nc2ncnc3scc(-c4ccccc4)c23)cc1OC	i	0.8
Cc1cc(NC(=O)c2cc(-c3ccco3)on2)n(-c2ccccc2)n1	i	3.7
O=C(CN1CCOCC1)Nc1ccc(F)cc1	i	0.04
Cc1ccc(C)c(N(Cc2cc3ccc(C)cc3[nH]c2=O)C(=O)c2ccco2)c1	i	0.07
COC(=O)[C@@H]1C[C@]2(OC(=O)c3ccccc3)C=CC(=O)C[C@@H]2N1C(=O)OCc1ccccc1	i	-0.01
COc1cc(C(=O)Nc2ccc(NC(=O)C3CC3)nc2)cc(OC)c1OC	i	-0.77
C/C=C(\C)C(=O)OC(C)(C)[C@H]1Cc2cc3ccc(=O)oc3cc2O1	i	0.24
Clc1ccc(C2=Nn3c(Cn4nnc5ccccc54)nnc3SC2)cc1	i	-0.07
COCCNc1c2c(c(C#N)c3nc4ccccc4n13)CCCC2	i	-1.4
CCSc1cc(N2CCCC2)nc(-c2ccc(F)cc2)n1	i	-1
COc1ccc(Cl)cc1NC(=O)CN(C)C(=O)Cc1ccsc1	i	-0.03
CC(=O)c1cc2c(cc1NS(=O)(=O)c1ccccc1Br)OCO2	i	-0.3
Cc1n[nH]c(=O)c2c(NC(=O)CSc3nnc(-c4ccncc4)n3C)oc(C)c12	i	1.5
CCn1cc(S(=O)(=O)NCCc2ccc(F)cc2)cn1	i	0.02
CCOc1ccc(S(=O)(=O)NCCC(=O)N2CCCN(C)CC2)cc1	i	0.77
CCOc1cc(C2C(C(=O)c3ccco3)=C(O)C(=O)N2CCc2ccccc2)ccc1O (stereo unspecified)	i	-1.2
CCOc1ccccc1N(C)C(=O)c1nn(-c2ccc(OC)cc2OC)c(=O)c2ccccc12	i	-0.5
COC(=O)Cc1cc(C)cc2c(=O)cc(-c3ccoc3)oc12	i	0.22
Nc1ccc(S(=O)(=O)N2CCOCCOCCOCCOCCOCC2)cc1	i	1.1
CN(CCc1ccccn1)C(=O)c1ccc(OC2CCN(Cc3ccccn3)CC2)cc1	i	1.7
N#Cc1nc(Cc2ccccc2)oc1NCc1ccccc1	i	-2.2
CCOC(=O)c1cnc(SCc2nc(N)nc(Nc3ccc(F)cc3)n2)nc1N	i	0.96
O=C(Nc1ccc(OC(F)(F)F)cc1)Oc1ccccc1N1CCCCC1	i	-1.7
COc1cc2c(cc1OC)CN(C(=O)c1cc(Cl)nc(Cl)c1)CC2	i	1.6
COc1ccc(Br)c(-c2nc(CS(=O)(=O)c3ccc(F)cc3)no2)c1	i	-1.3
CCOC(=O)c1nn(-c2ccc(C)c(C)c2)c(=O)c2c(N)scc12	i	0.26
Cc1nnc(SC(C)C(=O)NC2CCCc3ccccc32)n1-c1ccccc1 (stereo unspecified)	-6.6*	0.48*
Cc1ccc(Cn2ccc(NC(=O)c3noc4c3CCc3ccccc3-4)n2)cc1	i	0.37
COC(=O)[C@H](CCSC)NC(=O)NCc1cccs1	i	-0.66
COc1ccc(C(=O)COC(=O)C(C(C)C)N2C(=O)C3C4C=CC(C4)C3C2=O)cc1 (stereo unspecified)	i	0.06
Cc1ccc(CN2CCN(/N=C/c3cc(Br)ccc3F)CC2)cc1	i	0.79
O=C(COCc1cc(-c2ccc3c(c2)OCO3)on1)N1CCN(c2cccc(C(F)(F)F)c2)CC1	i	0.17
CCc1nnc(NC(=O)C2CCCN2C(=O)Nc2ccccc2OC)s1 (stereo unspecified)	i	0.14
Cc1ccc(S(=O)(=O)n2cc(C=O)c3ccccc32)cc1	i	1.9
On1c(-c2ccccc2)nc2ncccc21	i	0.72
Cc1ccc(S(=O)(=O)N2CCN(C(=O)CSc3nccn3C)CC2)cc1	i	3.2
COC(=O)c1c(NC(=O)CSc2ncn[nH]2)sc(C)c1C	i	2.8
O=C(CN(c1ccccc1)S(=O)(=O)c1ccccc1)NCCSCc1ccco1	i	-0.58
COCCNC(=O)c1ccccc1NC(=O)c1ccc(Cl)c(S(=O)(=O)Nc2ccc(C)cc2C)c1	i	2.1
CCCCn1c(CNC(=O)c2cccs2)nc2ccccc21	i	-2.4
COc1cc(NC(=O)COc2ccccc2Cl)ccc1NC(=O)c1cccs1	i	-1.4

Continuation.
SMILES	KCNQ2 block	KCNQ2 block baseline
CC(=O)Nc1ccc(S(=O)(=O)N2CCC3(CC2)CC(=O)c2ccccc2O3)cc1	i	-0.67
COc1cc([N+](=O)[O-])cc([N+](=O)[O-])c1NC(=O)N1CCOCC1	i	-1.6
CC(C)=CCc1c(O)c(CC=C(C)C)c2occ(-c3ccc(O)cc3)c(=O)c2c1O	i	-0.02
CSC(=O)CC(=O)NC(=O)c1ccccc1	i	-0.35
COc1ccccc1N1C(=O)C2CC=CC(C)C2C1=O (stereo unspecified)	i	-0.08
O=C(O)c1cc(S(=O)(=O)NC(Cc2c[nH]c3ccccc23)C(=O)O)ccc1Cl (stereo unspecified)	i	-1.3
CCOC(=O)N1CCC(N2Cc3cccc(C(=O)Nc4ccc(OC)c(OC)c4)c3C2=O)CC1	i	-0.04
COc1ccc2cc(CCC(C)=O)ccc2c1	i	-0.21
CCCCOc1ccc(-c2ncc([N+](=O)[O-])cn2)cc1	i	0.48
CCC(=O)N1c2ccccc2[C@@H](N(C(C)=O)c2ccccc2)C[C@H]1C	i	0.74
COc1cccc(C(=O)NN2CCOCC2)c1	i	-0.28
CC(=O)Nc1ccc2c(CSc3nnc(-c4cccnc4)n3-c3ccc(C)cc3C)cc(=O)oc2c1	i	-0.05

Pulled one by one from above, 3 records:
SMILES	KCNQ2 block	KCNQ2 block baseline
Cc1cc(NC(=O)c2cc(-c3ccco3)on2)n(-c2ccccc2)n1	i	3.7
COc1ccccc1-c1nnc2sc(COc3ccc(Cl)cc3Cl)nn12	i	4.8
COC(=O)[C@H](CCSC)NC(=O)NCc1cccs1	i	-0.66

Carrying on:
SMILES	KCNQ2 block	KCNQ2 block baseline
COc1cc(OC)cc(C(=O)NCCSCc2ccc(Cl)cc2)c1	i	0.24
CC(=O)Nc1ccc(Nc2ccc3nonc3c2[N+](=O)[O-])cc1	i	-0.95
Cc1cc(C)nc(SCCC(=O)Nc2ccc(F)cc2)n1	i	0.5
Cc1ccc(CNC2CCCCC2)s1	i	0.87
NC(=O)C1CCN(c2nc(-c3ccccc3)nc3c2oc2ccccc23)CC1	i	0.17
O=C(CSc1ncccn1)N1CCC(Cc2ccccc2)CC1	i	-3.4
CCCOc1ccc(C(=O)NCC(C)(C)N2CCOCC2)cc1	i	-1.1
O=C(NCCc1ccccc1)[C@@H]1CC=C[C@@H]2CCN(Cc3ccc(Cl)c(Cl)c3)C(=O)[C@@H]21	i	0.58
COc1ccc(S(=O)(=O)NNC(=O)c2csc(-n3nc(C)cc3C(F)(F)F)n2)cc1	i	1.2
COc1ccc(CN2CCCC(C(=O)Nc3cccc(-n4cccn4)c3)C2)cc1 (stereo unspecified)	i	-0.35
COc1ccc(C(=O)N/N=C(\C)CC(=O)Nc2ccccn2)cc1OC	i	0.21
COc1ccccc1C(=O)NNC(=O)c1cccc(Cl)c1	i	-0.73
CSc1nc2sc3c(c2c(=O)[nH]1)CCc1ccccc1-3	i	1.3
O=C(/C=C/c1cn(CC(O)CN2CCCCC2)c2ccccc12)c1ccccc1 (stereo unspecified)	-5.7*	3.3*
O=C(NCc1ccccn1)c1cn(CCc2ccccc2)nn1	i	0.86
O=C(Nc1ccc(Cl)cc1)[C@@H]1[C@@H]2C(=O)N(c3cccc(F)c3)C(=O)[C@@H]2[C@H]2C=CC=NN21	i	0.01
O=C(NCC1CCN(S(=O)(=O)c2ccccc2)CC1)Nc1ccccc1	i	-0.2
COCCn1c(=NC(=O)CSCC(=O)Nc2cc(C)on2)sc2cc(C(=O)OC)ccc21	i	0.73
O=C(NCC(=O)N1CCN(c2ccccc2)CC1)c1cccs1	i	0.15
COc1ccccc1-[n+]1c(C)cc(/C=C2\Sc3ccccc3N2C)cc1C	i	81
CC(C)N(Cc1nccn1C)C(=O)CC1C(=O)NCCN1Cc1ccc(F)cc1 (stereo unspecified)	i	0.99
Cc1ccc(-n2cc(CNCCCn3ccnc3C)c(-c3ccc(F)cc3)n2)cc1	i	-1.4
Cc1ccc2nc(-c3ccccc3)cc(C(=O)NCC(c3ccco3)N(C)C)c2c1 (stereo unspecified)	-5.8*	-1.4*
CCN(CC(=O)Nc1c(F)cccc1F)C(=O)c1ccc(N2CCCC2=O)cc1	i	0.05
S=C(NCCc1ccccc1)Nc1ccccc1	i	-1
O=S(=O)(CCN1CCCCC1)Oc1ccc(Cl)cc1Cl	i	0.88
CCOC(=O)c1c(NC(=O)CN(C)C)sc(C(=O)N(CC)CC)c1C	i	2.4
Cc1cccc(-c2nnn3c2nc(NCCc2ccc(S(N)(=O)=O)cc2)c2ccccc23)c1	i	1.4
O=C(Nc1cc(Cl)cc(Cl)c1)C1C2C=CC3(O2)C1C(=O)N(CCCN1CCOCC1)C3C(=O)NC1CCCCC1 (stereo unspecified)	i	0.81
Cc1cc(C)nc(NS(=O)(=O)c2ccc(NC(=O)c3ccccc3C)cc2)n1	i	0.12
CCc1nnc(NC(=O)CS(=O)(=O)c2ccccc2)s1	i	-1.5
COc1ccc2c(c1[N+](=O)[O-])CCC/C2=N/OC(=O)c1ccccc1SC	i	1.9
O=C(NCc1ccccc1)c1cccc(COc2ccc3c(c2)CCC3)c1	i	-1.3
CCOC(=O)N1CCN(C(=O)c2ccc3c(c2)N(Cc2ccc(F)cc2)CCS3)CC1	i	-1.4
Cc1nc(N2CCN(C(=O)c3ccco3)CC2)c2c3c(sc2n1)CC(C)CC3 (stereo unspecified)	i	0.69
COc1cccc(NC(=O)n2ncc3c(C)cccc32)c1	i	-1.8

Three entries from above, as labelled records:
CCOC(=O)c1c(NC(=O)CN(C)C)sc(C(=O)N(CC)CC)c1C
  KCNQ2 block: i	KCNQ2 block baseline: 2.4
COc1cccc(NC(=O)n2ncc3c(C)cccc32)c1
  KCNQ2 block: i	KCNQ2 block baseline: -1.8
S=C(NCCc1ccccc1)Nc1ccccc1
  KCNQ2 block: i	KCNQ2 block baseline: -1

The list continues.
SMILES	KCNQ2 block	KCNQ2 block baseline
Cc1ccc(NC(=S)N/N=C2/CCCCc3ccccc32)cc1	i	-0.42
COc1ccc2[nH]c3c(c2c1)CCN1C(=O)N([C@@H](C)C(=O)NCCc2ccc(OC)c(OC)c2)C(=O)[C@]31C	i	-1.1
Cc1cc(C)n2nc(C(=O)N/N=C/c3ccco3)nc2n1	i	0.34
C=CCn1c(-c2cccc3ccccc23)n[nH]c1=S	i	0.12
O=C(COC(=O)CNC(=O)c1ccc(Cl)cc1)Nc1ccc2c(c1)OCCO2	i	1.2
CCOC(=O)Cc1csc(NC(=O)CN2C(=O)c3ccccc3C2=O)n1	i	0.59
O=S(=O)(/C=C/c1ccccc1)NCc1ccccc1Cl	i	1.2
COc1ccc(C2=NS(=O)(=O)N(C)C(C(=O)N3CCOCC3)=C2)cc1	i	3.4
Cc1ccccc1C(=O)Nc1ccc(CN2CCOCC2)cc1	i	-2.9
O=C(Nc1cccc2ccccc12)N1CCOCC1	i	0.1
CC(=O)Oc1ccccc1-c1nc(/C=C/c2ccccc2)no1	i	-0.89
O=C(Nc1ccc(F)cc1F)C1(c2cccs2)CCOCC1	i	0.74
COc1ccc(-c2nn(-c3ccccc3)cc2C(=O)Nc2ccc(C(=O)O)cc2)cc1	i	0.18
COc1ccccc1-c1c(C(F)(F)F)oc2cc(OCC(=O)Nc3cc(C)ccc3C)ccc2c1=O	i	1.6
COC(=O)NNC(=O)c1ccc(Cl)cc1Cl	i	0.52

The list is partial; the hit share may differ from the screen's.
